Ecoli rRNA inh = inhibitors of bacterial rRNA selective over humanized ribosomes; E. coli WT GFP vs humanized-ribosome RFP mutants, fluorescence, 24 h; stronger effect = lower value; DMSO median 0, no signal -100; GFP signal change (wild-type ribosome), % (concentration not given with the values); 350,000 tested, 1.6% active; AID 720706;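 active = significant combined selectivity score with lowered wild-type GFP, culture density cut under 30%, mutant RFP and density less affected; inactive = any of these conditions unmet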; note: one replicate is shown; some compounds called inactive have numbers as strong as hits
MLL AF4-AF9 inh = blocks AF4 peptide binding to human AF9; P42568; AlphaScreen, biotin-AF4 peptide binding to FLAG-AF9; inhibition, % at 10 µM; 350,000 tested, 0.47% active; AID 651704;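 active = every replicate reaching a set inhibition limit, whatever the replicate mean, cut at about 25% in these data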;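 note: 0% = plate neutral control median and 100% = total signal loss; the record names both 10 and 1 µM as test concentration; the first replicate is given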
Target sequence (P42568 whole entry, looked up): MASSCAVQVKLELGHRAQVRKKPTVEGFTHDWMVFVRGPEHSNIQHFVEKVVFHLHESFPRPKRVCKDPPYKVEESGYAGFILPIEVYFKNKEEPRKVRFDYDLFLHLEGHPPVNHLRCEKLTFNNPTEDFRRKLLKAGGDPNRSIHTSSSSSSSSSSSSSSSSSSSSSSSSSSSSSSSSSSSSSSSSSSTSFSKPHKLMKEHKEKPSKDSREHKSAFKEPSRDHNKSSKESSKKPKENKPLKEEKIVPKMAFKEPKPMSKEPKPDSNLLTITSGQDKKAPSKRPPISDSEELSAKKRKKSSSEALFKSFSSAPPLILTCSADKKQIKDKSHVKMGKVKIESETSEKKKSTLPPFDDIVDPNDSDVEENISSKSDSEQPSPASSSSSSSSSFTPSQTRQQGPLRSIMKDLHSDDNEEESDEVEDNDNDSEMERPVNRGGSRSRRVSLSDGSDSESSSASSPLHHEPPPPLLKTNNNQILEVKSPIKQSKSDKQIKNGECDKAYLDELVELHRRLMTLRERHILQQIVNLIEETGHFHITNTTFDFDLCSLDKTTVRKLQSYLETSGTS
Ecoli rRNA inh OD600 = further read-out of Ecoli rRNA inh, marked with its call; OD600 change, %; measured here: OD600 growth;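 optical density of the mix in the first replicate; 0 = DMSO median and -100 = no signal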
Ecoli rRNA inh RFP = further read-out of Ecoli rRNA inh, marked with its call; RFP signal change, %; measured here: RFP humanized mutant strains;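 first replicate; 0 = DMSO median and -100 = no signal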
Starred values were filed as active, the others as inactive. A portion of the library; the hit share may differ from the screen's.

SMILES	Ecoli rRNA inh	Ecoli rRNA inh OD600	Ecoli rRNA inh RFP	MLL AF4-AF9 inh
COCC(=O)N1CC[C@H]2[C@@H]1c1cc(-c3ccc(OC)cc3)ccc1N(C)[C@H]2CO	-7	1	-4.2	-3.7
O=C(C[C@@H]1C[C@@H]2c3cc(NS(=O)(=O)c4ccc(F)cc4)ccc3O[C@@H]2[C@@H](CO)O1)NCc1cccnc1	1	-1	1.3	-0.2
COc1ccc(NC(=O)N[C@@H]2CC[C@@H](CCNS(=O)(=O)c3cccc(Cl)c3)O[C@H]2CO)cc1	-10	-9	3.8	4.0
C[C@@H]1CN([C@@H](C)CO)C(=O)c2cc(NC(=O)c3ccncc3)ccc2O[C@H]1CN(C)CC1CCCCC1	3	1	-0.7	-3.7
CC(C)CC#Cc1ccc([C@@H]2[C@H]3CN(C(=O)Cc4cccnc4)CC(=O)N3[C@H]2CO)cc1	4	-1	3.7	2.4
Cc1ccc(S(=O)(=O)Nc2cccc3c2O[C@@H](CN(C)S(=O)(=O)c2ccccc2)[C@@H](C)CN([C@@H](C)CO)C3=O)cc1	-4	-2	-0.6	-1.7
CN1CCCCN2[C@H](CO)[C@H](c3ccc(-c4ccccc4)cc3)[C@H]2C1	2	6	-0.4	-6.2
COCC(=O)N1CC2(C1)[C@H](c1ccc(-c3ccccc3)cc1)[C@@H](CO)N2C(=O)COC	0	-5	-1.4	-0.3
C[C@@H]1CN([C@@H](C)CO)C(=O)c2cc(NC(=O)c3ccncc3)ccc2O[C@@H]1CN(C)Cc1ccc(Cl)c(Cl)c1	-2	-12	9.8	3.4
FC(F)(F)Oc1ccccc1C(c1nnnn1Cc1ccccc1)N1CCN(C/C=C/c2ccccc2)CC1 (configuration not stated)	6	-7	-8.4	7.4
CCC(=O)N1[C@@H](CO)[C@@H](c2ccccc2)[C@@H]1CN(C(C)C)S(C)(=O)=O	2	11	-2.9	-2.7
O=C(Nc1ccccc1F)N[C@H]1CC[C@@H](CCNC(=O)C2CCCCC2)O[C@@H]1CO	-4	-5	-3.3	-1.4
CN(C)C(=O)c1ccc(-c2ccc3c(c2)[C@@H]2[C@@H](CCN2S(=O)(=O)c2cn(C)cn2)[C@@H](CO)N3)cc1	-3	5	-5.8	-2.1
CCS(=O)(=O)Nc1ccc2c(c1)C(=O)N(C)[C@H]1CC[C@@H](CC(=O)Nc3ccccc3)O[C@H]1CO2	2	-4	0.8	0.4
Cc1ccc(S(=O)(=O)Nc2ccc3c(c2)CC(=O)N([C@H](C)CO)C[C@@H](C)[C@H](CN(C)C(=O)Nc2c(C)noc2C)O3)cc1	2	1	-0.8	-1.5
CSc1nc2c(=O)[nH]cnc2s1	11	10	1.5	0.4
C[C@@H]1CN([C@@H](C)CO)C(=O)c2c(c3ccccc3n2C)-c2ccccc2CO[C@H]1CN(C)Cc1ccc(O)cc1	-5	-5	8.6	4.4
CCS(=O)(=O)Nc1ccc2c(c1)C(=O)N(C)C[C@@H](OC)[C@H](C)CN[C@@H](C)CO2	3	6	-2.7	-1.9
COc1ccc(-c2ccc(C(=O)Nc3cc(OC)c(OC)c(OC)c3)c3occc23)c(C)c1	-5	7	-5.0	0.9
C[C@H](CO)N1C[C@H](C)[C@H](CN(C)C(=O)Nc2ccccc2)Oc2ccc(NC(=O)Cc3cn(C)c4ccccc34)cc2C1=O	-3	-3	0.5	4.0
C[C@H](CO)N1C[C@H](C)[C@@H](CN(C)CC2CC2)Oc2cc(-c3cncnc3)ccc2S1(=O)=O	3	-1	0.4	-5.5
CS(=O)(=O)Nc1ccc2c(c1)[C@@H]1C[C@@H](CC(=O)NCc3ccccc3F)O[C@H](CO)[C@@H]1O2	0	5	-2.1	-1.3
COc1ccc(OC)c(CN2C(=O)CCC2(C)c2nnnn2Cc2ccccc2)c1 (configuration not stated)	6	8	0.8	-1.3
CC(C)NC(=O)N1[C@@H](C#N)[C@H](c2ccc(C#CC3CCCCC3)cc2)[C@@H]1CO	1	0	-0.7	-6.3
COc1ccc(-c2cnc3c(c2)C(=O)N([C@H](C)CO)C[C@@H](C)[C@@H](CN(C)Cc2cccnc2)O3)cc1	1	0	0.7	-3.9

Compound profiles, as listed above. Order of values: Ecoli rRNA inh | Ecoli rRNA inh OD600 | Ecoli rRNA inh RFP | MLL AF4-AF9 inh
CN1CCCCN2[C@H](CO)[C@H](c3ccc(-c4ccccc4)cc3)[C@H]2C1 as listed: 2 | 6 | -0.4 | -6.2
C[C@@H]1CN([C@@H](C)CO)C(=O)c2c(c3ccccc3n2C)-c2ccccc2CO[C@H]1CN(C)Cc1ccc(O)cc1 as listed: -5 | -5 | 8.6 | 4.4

(further entries)
SMILES	Ecoli rRNA inh	Ecoli rRNA inh OD600	Ecoli rRNA inh RFP	MLL AF4-AF9 inh
Cc1cc2c(c(=O)o1)[C@@]1(C(=O)N(C)c3ccccc31)C1=C(CC(C)(C)OC1=O)O2	10	12	-2.3	-1.6
Cc1noc(C)c1NC(=O)Nc1ccc2c(c1)C(=O)N([C@@H](C)CO)C[C@@H](C)[C@@H](CN(C)S(=O)(=O)c1ccccc1)OCCCC[C@@H](C)O2	-3	-8	0.7	1.4
CC(=O)N1CC[C@H]2[C@@H]1c1cc(-c3ccc(C#N)cc3)ccc1N(C)[C@H]2CO	12	9	0.9	-0.5
N#C[C@@H]1[C@@H](c2ccc(C#CC3CCCC3)cc2)[C@H](CO)N1S(=O)(=O)c1ccccc1	0	-24	22	0.5
C[C@@H]1CN([C@@H](C)CO)C(=O)c2cc(NC(=O)C3CC3)ccc2O[C@H]1CN(C)C(=O)Nc1ccc(F)cc1	5	9	-3.2	-0.5
O=C(NC1CCN(Cc2ccccc2)CC1)c1cccc(NS(=O)(=O)c2ccc(Br)cc2)c1	-42	-64	28	5.5
C[C@@H]1CCCCO[C@H](CN(C)C(=O)Nc2ccc(F)cc2)[C@H](C)CN([C@@H](C)CO)C(=O)c2cc(NC(=O)Nc3ccc(C(F)(F)F)cc3)ccc2O1	-6	-4	-5.3	-12
C[C@@H]1CN([C@@H](C)CO)C(=O)c2cc(NS(=O)(=O)c3ccc(F)cc3)ccc2O[C@@H]1CN(C)S(=O)(=O)c1cn(C)cn1	-1	2	-2.5	-3.1
CC(C)NC(=O)Nc1ccc2c(c1)CC(=O)N([C@H](C)CO)C[C@@H](C)[C@@H](CN(C)Cc1ccc(-c3ccccc3)cc1)O2	-4	-32	12	2.9
CN1C[C@@H](O)COC[C@@H]2O[C@@H](CC(=O)NC3CCCC3)CC[C@H]21	2	1	-1.2	-2.5
O=C(C[C@H]1C=C[C@H](NC(=O)Nc2ccc(C(F)(F)F)cc2)[C@@H](CO)O1)NCc1cc(F)cc(F)c1	-7	-2	0.4	-0.3
C[C@@H]1CCCCO[C@H](CN(C)CC2CC2)[C@H](C)CN([C@@H](C)CO)C(=O)c2cc(NC(=O)Nc3ccc(F)cc3)ccc2O1	-1	2	1.8	16
COCCNC(=O)C[C@H]1C=C[C@H](NC(=O)NC2CCCC2)[C@H](CO)O1	2	-3	0.0	-2.0
COc1ccc(C#Cc2ccc3c(c2)[C@H]2[C@H](CCN2C(=O)c2ccccn2)[C@@H](CO)N3)cc1	-3	4	-2.2	26*
COc1ccc(S(=O)(=O)Nc2cccc3c2O[C@H](CN(C)S(=O)(=O)c2cn(C)cn2)[C@H](C)CN([C@@H](C)CO)C3=O)cc1	1	4	-1.8	1.1
C[C@H]1CN([C@@H](C)CO)S(=O)(=O)c2ccc(-c3cccc(C#N)c3)cc2O[C@H]1CN(C)C	1	15	-0.1	-2.3
CCC(=O)N1CC[C@@H]2[C@H]1c1cc(C#Cc3cccc(F)c3)ccc1N(C)[C@H]2CO	6	10	-0.4	4.5
C[C@@H]1CN([C@H](C)CO)C(=O)c2cc(NS(=O)(=O)c3ccc(Cl)cc3)ccc2O[C@H]1CN(C)Cc1ccc(-c2ccccc2)cc1	3	-6	2.0	-2.0
CC(C)NC(=O)N(C)C[C@@H]1Oc2c(NC(=O)NC3CCCCC3)cccc2C(=O)N([C@H](C)CO)C[C@H]1C	-1	1	-4.4	-0.5
CN1[C@H](C(=O)NCc2ccccc2F)[C@@H](CO)[C@@H]2Cn3c(ccc(C4=CCCC4)c3=O)[C@@H]21	-1	-1	0.1	-0.7
C[C@H]1CN([C@@H](C)CO)C(=O)c2cc(C#Cc3ccccc3)cnc2O[C@@H]1CN(C)S(=O)(=O)c1ccccc1F	0	1	-2.2	-6.2
Cc1nnsc1C(=O)N1CCCC1(C)C(=O)O (configuration not stated)	16	21	0.2	-0.5
CC(C)CC#Cc1cnc2c(c1)C(=O)N([C@@H](C)CO)C[C@@H](C)[C@H](CN(C)C(=O)c1ccc(F)cc1)O2	-2	-8	-0.1	2.8
O=C(Nc1cc(F)ccc1F)N1CCCCN2[C@H](CO)[C@H](c3ccc(-c4ccncc4)cc3)[C@@H]2C1	-1	-10	2.4	-1.0
CN1C(=O)c2cc(NC(=O)C3CCCC3)ccc2OC[C@H]2O[C@H](CC(=O)NCCc3ccncc3)CC[C@H]21	5	6	-0.8	2.7
The results go on:
SMILES	Ecoli rRNA inh	Ecoli rRNA inh OD600	Ecoli rRNA inh RFP	MLL AF4-AF9 inh
CC(=O)N1[C@@H]2c3ccc(-c4cccnc4)c(=O)n3C[C@@H]2[C@@H](CO)[C@@H]1C(=O)NCc1ccccc1Cl	4	3	-3.0	-0.2
CC(C)NC(=O)Nc1ccc2c(c1)CC(=O)N([C@@H](C)CO)C[C@H](C)[C@@H](CN(C)C(=O)Nc1ccc3c(c1)OCO3)O2	4	2	-1.6	-0.7
COCC(=O)N1C[C@@H]2[C@H](c3ccccc31)[C@@H](CO)N2Cc1cc(F)ccc1F	0	2	-0.8	0.1
C[C@H](CO)N1C[C@H](C)[C@@H](CN(C)C(=O)CCCN(C)C)OCCCC[C@H](C)Oc2ccc(NC(=O)NC3CCCCC3)cc2C1=O	2	11	-4.1	-1.5
C[C@H](CO)N1C[C@H](C)[C@H](CN(C)Cc2ccc(C(=O)O)cc2)Oc2c(NC(=O)Nc3ccc4c(c3)OCO4)cccc2C1=O	6	7	-1.9	-2.2
COc1ccc(OC(=O)N(C)C[C@@H]2OCc3ccccc3-c3ccccc3C(=O)N([C@@H](C)CO)C[C@H]2C)cc1	-5	1	-3.5	12
C[C@H](CO)N1C[C@H](C)[C@H](CN(C)S(=O)(=O)c2cn(C)cn2)Oc2ccc(NC(=O)C3CC3)cc2C1=O	-1	0	-0.9	-1.8
Cc1ccc(S(=O)(=O)N2C[C@H]3C(=O)C[C@@H](c4cccs4)N(S(=O)(=O)c4ccc(C)cc4)[C@H]3C[C@H]2c2ccccc2)cc1	3	16	-0.6	-13
C[C@@H]1CN([C@H](C)CO)C(=O)Cc2cc(N(C)C)ccc2O[C@@H]1CN(C)C(=O)Nc1ccccc1	6	1	0.8	-0.4
C[C@@H]1CN([C@H](C)CO)C(=O)c2cc(NC(=O)CCCCCC(=O)Nc3ccccc3N)ccc2O[C@H]1CN(C)C(=O)Nc1ccc(C(F)(F)F)cc1	0	5	0.4	-0.4
CO[C@@H]1CN(C)C(=O)c2ccc(NC(=O)C3CCCC3)cc2OC[C@H](C)N(C)C[C@H]1C	-2	-3	-1.0	-1.6
CCCNC(=O)N1C[C@H]2[C@@H](c3ccccc31)[C@@H](CO)N2C(=O)Nc1ccc(F)cc1	2	7	-0.9	0.0
C[C@@H]1CN([C@H](C)CO)C(=O)c2ccccc2-c2ccccc2CO[C@@H]1CN(C)C(=O)CCN(C)C	4	16	-4.4	-3.3
CC(C)C#Cc1ccc([C@@H]2[C@H](CO)N3CCCCN(C(=O)NC(C)C)C[C@@H]23)cc1	9	5	3.4	0.4
COCC(=O)N1CCCCN2[C@@H](CO)[C@H](c3ccc(C#Cc4ccccc4)cc3)[C@@H]2C1	1	-7	10	0.9
CCCNC(=O)N(C)C[C@H]1Oc2ncc(C#CC3(O)CCCC3)cc2C(=O)N([C@H](C)CO)C[C@H]1C	2	-3	-1.4	-2.2
O=C(O)C[C@@H]1C=C[C@H](NC(=O)CCN2CCCCC2)[C@@H](CO)O1	3	1	-2.1	-20
C[C@H](CO)N1C[C@H](C)[C@H](CN(C)S(=O)(=O)c2ccccc2)Oc2ncc(-c3cc4ccccc4o3)cc2C1=O	0	0	-3.2	2.8
CN1CCN(C(=O)C[C@H]2CC[C@@H]3[C@H](COC[C@H](O)CN3C(=O)c3ccc(F)cc3)O2)CC1	-1	8	-0.7	-0.9
COc1ccc(S(=O)(=O)Nc2ccc3c(c2)CC(=O)N([C@H](C)CO)C[C@H](C)[C@@H](CN(C)C(=O)Nc2ccc4c(c2)OCO4)O3)cc1	3	7	-4.0	2.3

An excerpt from above, reduced to Ecoli rRNA inh RFP.
SMILES,Ecoli rRNA inh RFP
CC(C)C#Cc1ccc([C@@H]2[C@H](CO)N3CCCCN(C(=O)NC(C)C)C[C@@H]23)cc1,3.4
COCC(=O)N1CCCCN2[C@@H](CO)[C@H](c3ccc(C#Cc4ccccc4)cc3)[C@@H]2C1,10
CCCNC(=O)N(C)C[C@H]1Oc2ncc(C#CC3(O)CCCC3)cc2C(=O)N([C@H](C)CO)C[C@H]1C,-1.4
O=C(O)C[C@@H]1C=C[C@H](NC(=O)CCN2CCCCC2)[C@@H](CO)O1,-2.1
C[C@H](CO)N1C[C@H](C)[C@H](CN(C)S(=O)(=O)c2ccccc2)Oc2ncc(-c3cc4ccccc4o3)cc2C1=O,-3.2

Screening data deposited in PubChem by Broad Institute.
